Source: PubChem BioAssay
Menin MLL FP FL: displaces fluorescein MLL peptide from human menin; Fluorescence polarization, fluorescein-MLL peptide displacement from menin; AID 1766; 290,000 tested, under 10 active; FP activity change, % at 61.4 µM; inconclusive = falling polarisation curve, or a change in total fluorescence; inactive = total fluorescence flat and polarisation flat or rising; no compound was filed as active; the % refers to the polarisation; negative = inhibition;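 note: % of control where 0% means no effect; inhibitors lower the polarisation; unlabelled MLL peptide was the positive control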
Sfp PPTase inh: Sfp phosphopantetheinyl transferase inhibition. Potency, µM, inactives show max response, negative = inhibition, usual class: inhibitors. Biochemical Sfp PPTase activity, qHTS. 3.5% of 310,000 active. Q9F4F7. AID 1490; active = well fitted inhibition curve with a large enough effect; inconclusive = small, poorly fitted or top-dose-only effect, or another doubt; inactive = no such curve, though single readings can be large or run the other way;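 note: the enzyme is Sfp with the accession as filed and its product quenches rhodamine fluorescence; potency is the fitted concentration of half-maximal effect; 0% = enzyme reaction without inhibitor and -100% = no enzyme wells; top concentration of the series not given in the record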
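Sfp 15 nM + cpd, 15 min RT; start w/ rhodamine-CoA 5 uM, BHQ-2-YbbR 12.5 uM (final); 50 mM Hepes pH 7.6, 10 mM MgCl2, 0.01% NP-40, 0.01% BSA; read 525/598 nm at 0 and 30 min.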
Numbers without * were called inactive; u = inconclusive; x = no result given; & = joins results of further samples; [ ] = dose if it differs, or a comment.

1) CC(C)c1cc(/C=C(\C#N)C(=O)NCCCc2ccccc2)cc(C(C)C)c1O
2) CCOC(=O)c1c(NC(=O)CSc2nc3cc(Cl)ccc3s2)sc(C(C)=O)c1C
3) COc1ccccc1C(=O)NNC(=S)NC(=O)c1cccs1
4) Nc1ncnc2c1ncn2[C@@H]1O[C@H](C(=O)NC2CC2)[C@@H](O)[C@H]1O
5) O=C(NC(=S)NCc1ccco1)c1cccc(Cl)c1
6) C[C@]12CC[C@@H](O)C[C@@H]1CC[C@@H]1[C@@H]2CC[C@]2(C)C=CC[C@@H]12
7) Cc1ccc(/C=N/NC(=O)c2c(-c3ccccc3)noc2C)c(O)c1
8) Cc1ccc(C(=O)NC(=S)N(C)C2CCCCC2)cc1Br

screen / no.	1	2	3	4	5	6	7	8
Menin MLL FP FL	x	x	x	x	x	x	x	x
Sfp PPTase inh	25%	14%	15%	5%	-3%	26%	25%	5%

9) CCC(C)CCCCC(=O)N[C@@H](CCN)C(=O)N[C@H](C(=O)N[C@@H](CCN)C(=O)N[C@H]1CCNC(=O)C([C@@H](C)O)NC(=O)[C@@H](CCN)NC(=O)[C@H](CCN)NC(=O)[C@H](CC(C)C)NC(=O)[C@@H](CC(C)C)NC(=O)[C@H](CCN)NC1=O)[C@@H](C)O (stereo not given in full)
10) O=C1C(=O)c2ncccc2-c2cccnc21
11) C/C=C1/C(=O)C[C@@H]2[C@H]3CCC4=CC(=O)CC[C@]4(C)[C@@H]3CC[C@]12C
12) COc1ccc(OCC(=O)NNC(=S)NC(=O)C2CCCCC2)cc1
13) O=C1CC2(CCCC2)CC(=O)N1CCNCC1COc2ccccc2O1 (stereo not given)
14) O=C(CSc1nnc(NC(=O)c2ccccc2Cl)s1)Nc1ccc2c(c1)oc1ccccc12
15) CO[C@H]1/C=C/O[C@@]2(C)Oc3c(C)c(O)c4c(O)c(c(/C=N/N5CCN(C)CC5)c(O)c4c3C2=O)NC(=O)/C(C)=C\C=C\[C@H](C)[C@H](O)[C@@H](C)[C@@H](O)[C@@H](C)[C@H](OC(C)=O)[C@@H]1C
16) C[C@@]12CCC[C@H]1C1CC[C@H]3C[C@H](O)CC[C@]3(C)C1CC2 (stereo not given in full)

screen / no.	9	10	11	12	13	14	15	16
Menin MLL FP FL	x	x	x	x	x	x	x	x
Sfp PPTase inh	u	0.63µM*	8%	11%	-27%	-28%	-24%	26%

Record cards (already shown).
Results for O=C1C(=O)c2ncccc2-c2cccnc21 : Menin MLL FP FL = x; Sfp PPTase inh = 0.63µM*
Results for C[C@@]12CCC[C@H]1C1CC[C@H]3C[C@H](O)CC[C@]3(C)C1CC2 (stereo not given in full) : Menin MLL FP FL = x; Sfp PPTase inh = 26%

(more compounds)
17) CCCCC[C@H](O)CC(=O)CCc1ccc(O)c(OC)c1
18) O=C(NC(=O)c1ccccc1)Nc1ccccn1
19) c1cc(CN2CCCNCCNCCCNCC2)ccc1CN1CCCNCCNCCCNCC1
20) NC(C(=O)O)c1ccc(P(=O)(O)O)cc1 (stereo not given)
21) CS(=O)(=O)c1ccc(-c2nc(-c3ccc(F)cc3)c(-c3ccncc3)[nH]2)cc1
22) O=C(NC(=S)NC1CCSC1=O)c1ccc([N+](=O)[O-])cc1 (stereo not given)
23) O=C(O)COc1ccc(OCCNC[C@H](O)COc2ccccc2)cc1
24) C1CCC[C@H]2CCCN3CC[C@H](CCCCCC[C@@H]4CCCN5CC[C@H](CC1)OC45)OC23

screen / no.	17	18	19	20	21	22	23	24
Menin MLL FP FL	x	x	x	x	x	x	x	x
Sfp PPTase inh	11%&4%	20%	-4%	56µM*	-1%	-3%	2%	37%

Gathered by group, the compounds so far containing a COOH group
20) NC(C(=O)O)c1ccc(P(=O)(O)O)cc1 (stereo not given)
23) O=C(O)COc1ccc(OCCNC[C@H](O)COc2ccccc2)cc1

screen / no.	20	23
Menin MLL FP FL	x	x
Sfp PPTase inh	56µM*	2%

More structures:
25) O=C(/C=C/c1ccc(F)cc1)Nc1nc2ccccc2[nH]1
26) Cc1ccc(C(=O)c2ccc(C(F)(F)F)cc2)cc1
27) Cc1cc(C)c(NS(=O)(=O)c2ccc(NC(=O)/C=C/C(=O)O)cc2)c(C)c1
28) CC(O)(C(=O)Nc1ccc(S(=O)(=O)c2ccccc2)cc1)C(F)(F)F (stereo not given)
29) COc1ccc(CNC(=O)c2sc3nc4c(c(C(F)(F)F)c3c2N)CCC4)cc1
30) CCCCOc1cccc(C2C(C(=O)c3ccc(C)o3)=C(O)C(=O)N2Cc2ccco2)c1 (stereo not given)
31) Nc1nc2c(ncn2[C@@H]2O[C@H](COP(=O)(O)OP(=O)(O)O)[C@@H](O)[C@H]2O)c(=O)[nH]1
32) CC(C)[C@H](NC(=O)CNC(=O)OC(C)(C)C)C(=O)N[C@H](C=O)C(C)C

screen / no.	25	26	27	28	29	30	31	32
Menin MLL FP FL	x	x	x	x	x	x	x	x
Sfp PPTase inh	9%	-7%	-29%	10%&11%	-3%	-23%	8%	27%

33) COc1ccc(N(CC(=O)NCCSC2CCCCC2)S(=O)(=O)c2ccccc2)c(OC)c1
34) CN(CCc1ccc(Cl)c(Cl)c1)CC(O)COc1ccc(NS(C)(=O)=O)cc1 (stereo not given)
35) COc1ccc2c(c1)CC[C@@H]1[C@@H]2CC[C@]2(C)[C@@H](NCCCCCCN3C(=O)C=CC3=O)CC[C@@H]12
36) CCN(CC)c1ccc2cc(C(=O)NCc3ccc(F)cc3)c(=N)oc2c1
37) COc1cc(OC)c2ccc(=O)oc2c1C(CCN1CCOCC1)c1ccc(N(C)C)cc1 (stereo not given)
38) Cc1ccc(Cl)cc1N1CCN(C(=O)c2ccc3c(c2)CCN3S(C)(=O)=O)CC1
39) CCCCC/C=C\C\C=C/C=C/C=C/[C@@H](SC[C@H](N)C(=O)O)[C@@H](O)CCCC(=O)O
40) CC1=C(/C=C/C(C)=C/C=C/C(C)=C/C(=O)O)C(C)(C)CCC1O (stereo not given)

screen / no.	33	34	35	36	37	38	39	40
Menin MLL FP FL	x	x	x	x	x	x	x	x
Sfp PPTase inh	0%	28%&3%	16%	-25%	-3%	-2%	12%	5%

41) Cc1ccc(F)c(C2C3C=CCC(C)C3C(=O)N2Cc2ccccc2)c1 (stereo not given)
42) CNC(=O)[C@H]1O[C@@H](n2cnc3c(N)ncnc32)[C@H](O)[C@@H]1O
43) S=C(NCCc1cccc(Cl)c1)NCc1ccccc1
44) CCCCCCCCCCCCCCCCCCc1ccc(C(=O)/C=C/C(=O)O)cc1
45) c1ccc(CN(CCN(Cc2ccccn2)Cc2ccccn2)Cc2ccccn2)nc1
46) COc1ccccc1N1CCN(CC2CN3C(=O)N(C)c4ccccc4C3=N2)CC1 (stereo not given)
47) C[C@H](CC[C@@H]1OC1(C)C)C1CC[C@H]2[C@@H]3CC=C4C[C@@H](O)CC[C@]4(C)[C@H]3CC[C@]12C (stereo not given in full)
48) Cc1cccc(/C(N)=N/OC(=O)c2cccc3ccccc23)c1

screen / no.	41	42	43	44	45	46	47	48
Menin MLL FP FL	x	x	x	x	x	x	x	x
Sfp PPTase inh	-14%	14%	0%	-3%	25%	6%	10%	-3%

49) CCCNC(=O)[C@H]1O[C@@H]1C(=O)N[C@H](C(=O)N1CCC[C@H]1C(=O)OC)[C@@H](C)CC
50) OCC(O)COc1cccc2ccccc12 (stereo not given)
51) O=C1C(=O)N(c2nccs2)C(c2ccccc2)/C1=C(\O)c1ccc2c(c1)OCCO2 (stereo not given)
52) C[C@H](CCC(=O)NCC(=O)O)C1CC[C@H]2C3CC[C@@H]4C[C@H](O)CC[C@]4(C)C3C[C@H](O)[C@]12C (stereo not given in full)
53) CO[C@H]1C[C@@H]2CC[C@@H](C)[C@@](O)(O2)C(=O)C(=O)N2CCCC[C@H]2C(=O)O[C@H](C(C)C[C@H]2CC[C@@H](O)[C@H](OC)C2)CC(=O)[C@H](C)/C=C(\C)[C@@H](O)[C@@H](OC)C(=O)[C@H](C)C[C@H](C)/C=C/C=C/C=C/1C (stereo not given in full)
54) N#C/C(=C\c1cc(Cl)cc(Cl)c1)c1cccnc1
55) Cc1ccc(C(=O)Nc2ccc3c(c2)OCO3)cc1Cl
56) C[C@@](N)(C(=O)O)[C@@H]1C[C@@H]1C(=O)O

screen / no.	49	50	51	52	53	54	55	56
Menin MLL FP FL	x	x	x	x	x	x	x	x
Sfp PPTase inh	21%	-9%	5%	7%	3%	3%&0%	10%	-20%

57) CC(C)/C=C/CN1CCC(Oc2ccc(C(=O)N3CCCC3)cc2)CC1
58) N[C@H](Cc1ccccc1)C(=O)O
59) COc1ccc(S(=O)(=O)N(CCO)c2ccccc2CN(C)C/C=C/c2ccc(Cl)cc2)cc1
60) C=C1Cc2c(Cl)cc3[nH]c4c5c3c2[C@@]2(O)[C@@H]1C[C@@H]2C(C)(C)O[C@H]5[C@@H]1CC[C@@]2(O)[C@@]35O[C@@H]3[C@@H](O)[C@@H](C(=O)O)O[C@H]5CC[C@]2(C)[C@@]41C
61) CC1=C(C(=O)OC(C)C)[C@@H](c2cccc3nonc23)C([N+](=O)[O-])=C(C)N1
62) Cn1c2ccccc2c2c3c(c4c5ccccc5n(CCC#N)c4c21)CNC3=O
63) NC(C(=O)O)c1cccc(O)c1 (stereo not given)
64) CCCC[C@@H](C=O)NC(=O)[C@H](CC(C)C)NC(=O)OCc1ccccc1

screen / no.	57	58	59	60	61	62	63	64
Menin MLL FP FL	x	x	x	x	x	x	x	x
Sfp PPTase inh	5%	-15%	-28%	34%[activator]	-1%	-1%	5%	2%

65) NCCCCNS(=O)(=O)c1cccc2c(Cl)cccc12
66) Fc1ccc(CN(C2=NCCN2)c2c(Cl)cccc2Cl)cc1
67) OC[C@H]1O[C@@H](n2cnc3c(NC4CCCC4)ncnc32)[C@H](O)[C@H]1O
68) N=S(=O)(O)Cc1noc2ccccc12
69) CNC(=O)[C@H]1O[C@@H](n2cnc3c(N)ncnc32)[C@H](O)[C@H]1O
70) NC(=NCCC[C@H](N)C(=O)O)NO
71) N#C/C(=C\c1c[nH]c2ccccc12)C(=O)c1ccc(O)c(O)c1
72) Cc1cc2c(cc1Cl)N(C(=O)Nc1ccnc3ccccc13)CC2

screen / no.	65	66	67	68	69	70	71	72
Menin MLL FP FL	3.1	35[activator]	-0.5	9.0	-0.1	1.5	8.7	-4.9
Sfp PPTase inh	x	x	x	x	x	x	x	x

Quoted from the listing:
#65 – Menin MLL FP FL: 3.1
#67 – Menin MLL FP FL: -0.5

Continued:
73) O=c1ccc2c(OCCCCc3ccccc3)c3ccoc3cc2o1
74) CN1CCc2cc(NC(=O)Nc3cccnc3)ccc21
75) O=C1NC(O)=NC1(c1ccccc1)c1ccccc1
76) OC[C@H]1O[C@@H](n2cnc3c(Nc4ccccc4)ncnc32)[C@H](O)[C@H]1O
77) O=Nc1ccc2oc(=O)ccc2c1
78) NC1(C(=O)O)CCCCC1
79) NC1CCN(O)C1=O (stereo not given)
80) O=c1ccc2ccc(O)c(O)c2o1

screen / no.	73	74	75	76	77	78	79	80
Menin MLL FP FL	4.0	1.4	-2.9	3.1	2.4	-1.1	0.5	4.5
Sfp PPTase inh	x	x	x	x	x	x	x	x

Three entries already listed, sorted by molar mass, rising.
80) O=c1ccc2ccc(O)c(O)c2o1
73) O=c1ccc2c(OCCCCc3ccccc3)c3ccoc3cc2o1
76) OC[C@H]1O[C@@H](n2cnc3c(Nc4ccccc4)ncnc32)[C@H](O)[C@H]1O

screen / no.	80	73	76
Menin MLL FP FL	4.5	4.0	3.1
Sfp PPTase inh	x	x	x

Going on with the list:
81) NC(=S)c1ccc[n+]([C@@H]2O[C@@H](COP(=O)([O-])OP(=O)(O)OC[C@H]3O[C@@H](n4cnc5c(N)ncnc54)[C@H](OP(=O)(O)O)[C@H]3O)C(O)C2O)c1 (stereo not given in full)
82) CC1=C(CC(=O)O)c2cc(F)ccc2/C1=C\c1ccc(S(C)(=O)=O)cc1
83) O=[N+]([O-])c1ccc(CSc2ncnc3c2ncn3[C@@H]2O[C@H](CO)[C@H](O)[C@H]2O)cc1
84) Nc1nc(Nc2ccccc2)nc2c1ncn2[C@@H]1O[C@H](CO)[C@H](O)[C@H]1O

screen / no.	81	82	83	84
Menin MLL FP FL	6.4	3.0	3.3	1.7
Sfp PPTase inh	x	x	x	x

Only part of the results is shown. The share of hits here may be higher or lower than overall.
